GALR2 agonist: agonists of human galanin receptor 2 (GALR2). O43603. GALR2-expressing cells, agonist activation read-out. activation, %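 (tested at 5 µM)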. hit rate 0.48% among 140,000. AID 803;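 active = above mean plus 3 SD of all compounds, about 5% in these data, not always enough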;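 also: 0% = vehicle buffer wells and 100% = reference agonist at full effect; tested in CHO reporter cells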
Target sequence (O43603 whole entry, looked up): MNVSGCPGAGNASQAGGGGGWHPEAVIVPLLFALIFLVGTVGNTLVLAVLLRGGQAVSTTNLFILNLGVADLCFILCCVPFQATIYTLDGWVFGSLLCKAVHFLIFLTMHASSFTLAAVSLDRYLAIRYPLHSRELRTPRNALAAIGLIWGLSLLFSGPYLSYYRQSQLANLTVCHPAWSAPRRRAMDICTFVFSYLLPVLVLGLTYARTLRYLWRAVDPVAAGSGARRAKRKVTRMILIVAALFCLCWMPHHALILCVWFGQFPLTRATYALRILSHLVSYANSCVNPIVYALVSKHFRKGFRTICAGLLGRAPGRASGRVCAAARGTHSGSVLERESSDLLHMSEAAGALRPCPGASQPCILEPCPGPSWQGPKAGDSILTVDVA
Insulin prom inh: TRM-6 insulin promoter activity inhibition. inhibition, % at 2 µM. hit rate 0.9% among 130,000. TRM-6 cells (human fetal islet line), insulin promoter-eGFP reporter, imaging; reporter expression induced with tamoxifen;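 active = inhibition above the mean plus 3 SD, with well images judged a real hit on visual review, cut at about 60% in these data, passing the limit was not always enough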
HSV replic up: increases HSV replication in cells; HSV replication augmentation in cells, fold increase; hit rate 0.005% among 220,000; maximum fold increase;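 active = peak rise of 1.5-fold or more in the series; tested in PC3 cells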;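 also: first round at 10 µM; read as green reporter fluorescence; hits show the peak of a series up to 25 µM; 1 = signal of infected wells without compound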
PKD1 kinase inh: inhibitors of human PKD1 kinase | Q15139 | PKD1 kinase fluorescence polarization assay | inhibition, %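 (about 10 µM by stock and volumes)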 | hit rate 0.056% among 200,000 | AID 797;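 active = inhibition of 50% or more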;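 also: controls were vehicle for no effect and a reference inhibitor for full effect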
RGS16-Gao HTS: modulates binding between human RGS16 and Galphao; O15492+P09471; bead-based flow cytometry RGS16-Galphao binding, fluorescence; actives lie on both sides; binding response (% of control), % at 10 µM; hit rate 0.38% among 220,000; AID 1441;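 active = below 25% or above 175%, edge rows of some plates excepted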;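 also: Galphao activated by GDP with aluminum fluoride before binding; 100% = wells without compound and 0% = beads without RGS; some results beyond the cut were filed as inactive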
Target sequence (O15492 whole entry, looked up): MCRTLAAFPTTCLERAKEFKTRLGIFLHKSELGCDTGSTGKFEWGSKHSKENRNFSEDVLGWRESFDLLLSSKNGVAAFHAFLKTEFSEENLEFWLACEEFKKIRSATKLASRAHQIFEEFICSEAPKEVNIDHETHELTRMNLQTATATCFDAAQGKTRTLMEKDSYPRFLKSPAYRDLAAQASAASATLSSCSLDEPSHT
Target sequence (P09471 whole entry, looked up): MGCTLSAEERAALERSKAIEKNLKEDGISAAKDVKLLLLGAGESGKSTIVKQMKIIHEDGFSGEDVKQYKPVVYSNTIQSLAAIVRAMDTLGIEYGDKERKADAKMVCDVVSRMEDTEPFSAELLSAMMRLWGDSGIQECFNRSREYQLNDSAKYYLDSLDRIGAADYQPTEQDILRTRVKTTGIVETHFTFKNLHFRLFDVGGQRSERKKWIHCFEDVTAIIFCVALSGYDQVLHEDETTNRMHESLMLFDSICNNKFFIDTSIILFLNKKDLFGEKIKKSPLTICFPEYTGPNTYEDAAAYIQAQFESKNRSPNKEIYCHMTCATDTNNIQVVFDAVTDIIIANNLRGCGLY
Insulin prom inh cell count: second read-out of Insulin prom inh, no call of its own (marks repeat the call); normalized cell count, %; measured here: cell count, toxicity; reference of the scale not given here;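 cells exposed to compound for 48 h; stained nuclei by imaging scaled within each plate; lower means fewer cells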
HSV replic up primary fold: recorded beside HSV replic up, whose call it bears; fold increase; compound at 10 µM; measured here: primary screen fold increase 10 uM; tested in PC3 cells;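 GFP signal in the first replicate; 1 = infected wells without compound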
Starred values were filed as active, the others as inactive; i = inactive; / = no result given.

SMILES | GALR2 agonist | Insulin prom inh | Insulin prom inh cell count | HSV replic up | HSV replic up primary fold | PKD1 kinase inh | RGS16-Gao HTS
CCn1c(NC(=O)c2ccco2)c(-c2ccccc2Cl)c(=O)c2ccccc21 | -0.3 | 90* | 69* | i | 0.85 | 3 | 102
O=S(=O)(NC1CCCCC1Oc1ccccc1)c1ccccc1 (centres undefined) | -1.2 | / | / | i | 0.91 | -4 | 104
CCOC(=O)C1=C(c2ccccc2)Nc2ncnn2C1c1cc(OC)ccc1OC (centres undefined) | -2.1 | -339 | 55 | i | 0.99 | -3 | 108
CCn1c(SCc2ccc(C)cc2)nnc1-c1nn(-c2ccccc2)ccc1=O | -0.2 | / | / | i | 1.1 | -8 | 93
Cc1cc(=O)[nH]c(-c2ccc(C(F)(F)F)cc2)n1 | / | / | / | i | 0.99 | / | 90
COc1ccc(C(=O)CN(C(=O)c2ccc(Cl)cc2)N2C(=O)C3CCCCC3C2=O)cc1 (centres undefined) | -1.5 | -54 | 118 | i | 0.84 | 2 | 99
COc1ccc(Cl)cc1-n1c(C)ccc1C | 0.6 | -17 | 101 | / | / | -6 | 94
COc1ccccc1NC(=O)CSc1nnc(-c2ccco2)n1Cc1ccco1 | -1.7 | -8 | 90 | i | 1.1 | 5 | 99
CC(C)(O)C#Cc1ccc(C(=O)N2CCN(c3ccccc3)CC2)cc1 | -1.6 | 46 | 175 | i | 0.97 | 3 | 94
Cc1ccc(C(O)c2cccnc2)o1 (centres undefined) | -3.9 | / | / | i | 0.78 | -8 | 114
CC(NC(=O)CCOc1ccccc1)c1ccccc1 (centres undefined) | -0.5 | / | / | i | 0.98 | -1 | 99
CC(C)C(=O)Nc1ncc(Cc2ccccc2Cl)s1 | / | 40 | 106 | i | 1 | 8 | 116
COc1ccc(/C=C/c2c([N+](=O)[O-])c(=O)n(C)c(=O)n2C)c(OC)c1 | / | 46 | 141 | i | 0.76 | 1 | 93
Cc1ccc(-c2cc(C(=O)NCCCn3ccnc3)c3ccccc3n2)s1 | -0.4 | 14 | 57 | i | 0.96 | 3 | 103
S=C(c1ccc(N2CCCC2)cc1)N1CCCCC1 | 0.3 | -13 | 80 | i | 0.81 | 7 | 100
O=C(c1ccccc1)C1CCc2occc2C1=O (centres undefined) | 0.4 | -32 | 147 | i | 1 | -4 | 106
COc1ccc(C2=CC(c3ccc(C)cc3)n3nnnc3N2)cc1 (centres undefined) | -3.4 | 43 | 122 | i | 1.2 | -1 | 106
N/C(=N\OC(=O)c1ccccc1Cl)c1ccccn1 | -1.1 | -17 | 145 | i | 1.2 | -5 | 96
CCCC1=NN(C(=O)Cc2ccc(OC)c(OC)c2)C(O)(C(F)(F)F)C1 (centres undefined) | / | / | / | i | 1 | / | 98
CCOC(=O)c1cn(CC(=O)Nc2ccc(C(C)C)cc2)nn1 | -1.7 | / | / | i | 0.74 | 5 | 99
O=C1CC(C(=O)Nc2ccc(F)cc2)n2cnnc2N1 (centres undefined) | / | / | / | i | 0.94 | 2 | 99
CC(=O)Nc1ccc(-n2c(C)ccc2C)cc1 | / | -36 | 101 | i | 0.9 | -6 | 52
COc1ccc(C(=O)Nc2cc(OC)c(Cl)cc2Cl)cc1 | / | 56 | 81 | i | 0.97 | 6 | 103
CCN(CC)c1ccc(/C=N/Nc2nc(C)cc(=O)[nH]2)cc1 | -0.8 | / | / | / | / | 0 | 87
O=C(CC1C(=O)NCCN1Cc1c(F)cccc1Cl)NCCC1=CCCCC1 (centres undefined) | / | / | / | i | 0.96 | -3 | 102

Some of the entries above in another layout:
Compound,GALR2 agonist,Insulin prom inh,Insulin prom inh cell count,HSV replic up,HSV replic up primary fold,PKD1 kinase inh,RGS16-Gao HTS
CC(C)(O)C#Cc1ccc(C(=O)N2CCN(c3ccccc3)CC2)cc1,-1.6,46,175,i,0.97,3,94
Cc1ccc(C(O)c2cccnc2)o1 (centres undefined),-3.9,/,/,i,0.78,-8,114
CC(NC(=O)CCOc1ccccc1)c1ccccc1 (centres undefined),-0.5,/,/,i,0.98,-1,99
CC(C)C(=O)Nc1ncc(Cc2ccccc2Cl)s1,/,40,106,i,1,8,116
COc1ccc(/C=C/c2c([N+](=O)[O-])c(=O)n(C)c(=O)n2C)c(OC)c1,/,46,141,i,0.76,1,93
Cc1ccc(-c2cc(C(=O)NCCCn3ccnc3)c3ccccc3n2)s1,-0.4,14,57,i,0.96,3,103
S=C(c1ccc(N2CCCC2)cc1)N1CCCCC1,0.3,-13,80,i,0.81,7,100
O=C(c1ccccc1)C1CCc2occc2C1=O (centres undefined),0.4,-32,147,i,1,-4,106
COc1ccc(C2=CC(c3ccc(C)cc3)n3nnnc3N2)cc1 (centres undefined),-3.4,43,122,i,1.2,-1,106
N/C(=N\OC(=O)c1ccccc1Cl)c1ccccn1,-1.1,-17,145,i,1.2,-5,96
CCCC1=NN(C(=O)Cc2ccc(OC)c(OC)c2)C(O)(C(F)(F)F)C1 (centres undefined),/,/,/,i,1,/,98
CCOC(=O)c1cn(CC(=O)Nc2ccc(C(C)C)cc2)nn1,-1.7,/,/,i,0.74,5,99
O=C1CC(C(=O)Nc2ccc(F)cc2)n2cnnc2N1 (centres undefined),/,/,/,i,0.94,2,99
CC(=O)Nc1ccc(-n2c(C)ccc2C)cc1,/,-36,101,i,0.9,-6,52
COc1ccc(C(=O)Nc2cc(OC)c(Cl)cc2Cl)cc1,/,56,81,i,0.97,6,103
CCN(CC)c1ccc(/C=N/Nc2nc(C)cc(=O)[nH]2)cc1,-0.8,/,/,/,/,0,87
O=C(CC1C(=O)NCCN1Cc1c(F)cccc1Cl)NCCC1=CCCCC1 (centres undefined),/,/,/,i,0.96,-3,102

3 entries out of the list, arranged by length of the SMILES, rising.
SMILES | GALR2 agonist | Insulin prom inh | Insulin prom inh cell count | HSV replic up | HSV replic up primary fold | PKD1 kinase inh | RGS16-Gao HTS
CC(C)C(=O)Nc1ncc(Cc2ccccc2Cl)s1 | / | 40 | 106 | i | 1 | 8 | 116
O=C1CC(C(=O)Nc2ccc(F)cc2)n2cnnc2N1 (centres undefined) | / | / | / | i | 0.94 | 2 | 99
COc1ccc(C(=O)Nc2cc(OC)c(Cl)cc2Cl)cc1 | / | 56 | 81 | i | 0.97 | 6 | 103

(next part)
SMILES | GALR2 agonist | Insulin prom inh | Insulin prom inh cell count | HSV replic up | HSV replic up primary fold | PKD1 kinase inh | RGS16-Gao HTS
NC(=O)/C(=C\c1ccncc1)c1cccc2ccccc12 | / | / | / | i | 1 | / | 101
COc1ccc(CNC(=O)c2sc(=S)n(-c3ccccc3)c2N)cc1 | / | / | / | i | 1 | / | 98
O=C(Nc1ccc(C(=O)N2CCCCC2)cc1)c1ccc(Br)cc1 | -1.0 | -3 | 114 | i | 0.86 | 14 | 98
O=C(CSc1ccc(Cl)cc1)NC1CCCc2ccccc21 (centres undefined) | -2.4 | -80 | 41 | i | 0.93 | -3 | 119
Cc1cccc(NC(=O)C2C(C(=O)O)C3C=CC2C32CC2)c1C (centres undefined) | -2.0 | / | / | / | / | -1 | 102
CC12CCC(C(=O)O)(c3nc4cc([N+](=O)[O-])ccc4nc31)C2(C)C (centres undefined) | / | / | / | i | 1.2 | / | 103
C[C@@H]1C=C[C@](Cc2ccccc2)(C(=O)NCCc2c[nH]c3ccccc23)N1C(=O)c1ccccc1 | -1.2 | -32 | 112 | i | 1.2 | -11 | 100
CNC(=S)N/N=C/c1ccc(-c2ccc(C(=O)O)cc2)o1 | / | / | / | i | 1.2 | / | 94
O=C1CN(C(=O)COC(=O)c2ccccc2NC(=O)c2ccco2)c2ccccc2N1 | -0.5 | -6 | 158 | i | 0.75 | -10 | 116
CC1(C)CC(=O)C2=C(C1)N(c1ccc(F)cc1)C(=O)C2(NC(=O)c1ccccc1)C(F)(F)F (centres undefined) | -1.6 | 19 | 148 | i | 0.88 | -2 | 105
COc1ccccc1N(O)C1CC(=O)N(c2ccc(Br)cc2)C1=O (centres undefined) | -1.1 | / | / | i | 0.83 | 1 | 97
CCCCc1ccc(NS(=O)(=O)N(C)C)cc1 | -1.6 | 26 | 116 | i | 0.89 | 8 | 102
COc1ccc(Cl)cc1C(=O)NCC#N | -4.7 | 14 | 93 | i | 0.96 | -5 | 99
O=c1cc(CO)oc(CN2CCN(c3cccc(C(F)(F)F)c3)CC2)c1O | -2.0 | 9 | 170 | i | 1.1 | 0 | 102
COc1ccc(C2(C(=O)Nc3ccc(C)c(C)c3)CCOCC2)cc1 | / | -75 | 101 | i | 0.91 | 4 | 109
Cc1cc(C)c2c(c1)/C(=N/NC(=S)Nc1ccc(F)cc1)CCC2 | -0.4 | 5 | 91 | i | 0.98 | -10 | 100
CCOc1ccc2nc(NC(=O)c3c([N+](=O)[O-])cnn3CC)sc2c1 | 0.0 | 7 | 191 | i | 0.69 | -13 | 105
CCc1ccccc1NNC(=O)c1snnc1C | / | / | / | i | 0.93 | / | 105
COC(=O)NCc1ccc2c(c1)OCO2 | -1.8 | -8 | 119 | i | 0.94 | -3 | 99
COc1ccc(OCCNS(=O)(=O)c2ccccc2)cc1 | -0.2 | / | / | i | 0.9 | -12 | 98
C[C@H](NC(=O)OCc1ccccc1)c1nnc([C@H](Cc2ccccc2)NC(=O)OC(C)(C)C)o1 | / | / | / | i | 1.1 | / | 103
COc1cccc(N2CCN(C(=O)Nc3ccc4c(c3)NC(=O)CO4)CC2)c1 | -2.8 | 32 | 101 | i | 0.95 | 0 | 101
O=C(COC(=O)c1cccc(O)c1)Nc1ccc(OC(F)F)cc1 | / | 0 | 126 | i | 0.91 | -4 | 101
CCc1ccc(NC(=O)c2ccc3c(=O)n4c(nc3c2)CCCCC4)cc1 | / | / | / | i | 0.89 | / | 100
Cn1ncc(N)c1C(=O)Nc1cccc(C(F)(F)F)c1 | -0.6 | -53 | 89 | i | 0.93 | -5 | 105
SMILES | GALR2 agonist | Insulin prom inh | Insulin prom inh cell count | HSV replic up | HSV replic up primary fold | PKD1 kinase inh | RGS16-Gao HTS
CC(=O)N1CCN(c2ccccc2NC(=O)c2ccc(-c3cccc([N+](=O)[O-])c3)o2)CC1 | / | / | / | i | 0.97 | -6 | 91
CC1(C)CC(=O)C([N+](=O)[O-])=C(NCCCO)C1 | 0.9 | / | / | i | 1.1 | 1 | 100
CCn1c2ccccc2c2nc3ccccc3nc21 | 1.1 | 3 | 100 | i | 0.84 | 0 | 104
Cc1ccccc1NC(=O)CCC(=O)OCC(=O)c1ccc(-c2ccccc2)cc1 | -1.1 | -9 | 36 | i | 0.97 | -5 | 96
C[C@@H](C(=O)Nc1ccc2ccccc2c1)[C@H]1C[C@]1(C)[C@H](NC(=O)c1cnccn1)c1ccccc1 | -2.7 | -62 | 76 | i | 0.77 | 9 | 98
CCCC(=O)c1cc2ccccc2oc1=O | 0.0 | / | / | i | 0.89 | 1 | 103
COC(=O)CSc1nnc(-c2ccoc2C)n1-c1ccc(OC)cc1 | -2.3 | / | / | i | 0.99 | 0 | 106
Cc1ccccc1C(=O)NC(CC(C)C)C(=O)OCC(=O)c1c(N)n(C)c(=O)n(C)c1=O (centres undefined) | / | / | / | i | 1 | -5 | 95
CCOC(=O)N1CCN(C(=S)Nc2ccccc2C(C)C)CC1 | / | / | / | i | 0.94 | -5 | 105
CCOC(=O)N1CCC(N2CCN(Cc3ccc(F)c(F)c3)C(CCO)C2)CC1 (centres undefined) | / | 22 | 159 | i | 0.9 | -4 | 101
O=C1Nc2ccccc2OC1CC(=O)N1CCCC1 (centres undefined) | -0.4 | -14 | 124 | i | 0.89 | -11 | 99
CCOP(=O)(OCC)C(Nc1cccc([N+](=O)[O-])c1)c1ccccc1 (centres undefined) | / | / | / | i | 0.96 | / | 101
O=C(Nc1nc2c(F)cc(F)cc2s1)c1ccccn1 | / | -8 | 83 | i | 0.63 | 1 | 100
O=C(CO/N=C/c1ccc(OC(F)F)cc1)NCc1ccc(F)cc1 | / | / | / | i | 0.86 | -1 | 100
CN1CCN(C(=O)c2cc(-c3ccco3)on2)CC1 | -4.1 | -17 | 113 | i | 1.2 | -12 | 103
COc1ccccc1C(=O)N/C(N)=N/c1nc2ccccc2o1 | -2.4 | 24 | 100 | i | 0.94 | -14 | 100
CCOc1ccccc1C(=O)NCC(=O)NCCCc1ccccc1 | / | -8 | 126 | i | 0.93 | -6 | 90
[O-]/C(=C(\C(=S)NCc1ccc2c(c1)OCO2)[n+]1ccccc1)c1ccc(Cl)s1 | / | / | / | i | 0.92 | -4 | 96
Cc1ccccc1N1CCN(CCN2C(=O)CC(=C3c4ccccc4-c4ccccc43)C2=O)CC1 | -1.0 | 26 | 116 | i | 0.92 | -7 | /
Nc1cc(C(=O)OCC(=O)NCc2ccc(F)cc2)ccc1Cl | 0.1 | -3 | 141 | i | 1 | -3 | 108
COCC(=O)N(CCc1ccc(OC)c(OC)c1)Cc1cc2cc(C)ccc2nc1Cl | / | / | / | i | 0.99 | 1 | 96

The order is random; 1.3% or so of the library scored in one or more.
